Menin-MLL FL inh = menin-MLL binding inhibition, fluorescein peptide; Fluorescence polarization, fluorescein-MLL peptide displacement from menin; FP activity change, % at 61.4 µM; 290,000 tested, under 10 active; AID 1766; inconclusive = falling polarisation curve, or a change in total fluorescence; inactive = total fluorescence flat and polarisation flat or rising; no compound was filed as active; the % refers to the polarisation; negative = inhibition;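 also: % of control where 0% means no effect; inhibitors lower the polarisation; unlabelled MLL peptide was the positive control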
Sfp inh = inhibitors of Bacillus subtilis Sfp phosphopantetheinyl transferase. Biochemical Sfp PPTase activity, qHTS. Potency, µM, without a hit: max response, negative = inhibition, most hits filed as inhibitors. 310,000 compounds, 3.5% hits. AID 1490; active = well fitted inhibition curve with a large enough effect; inconclusive = small, poorly fitted or top-dose-only effect, or another doubt; inactive = no such curve, though single readings can be large or run the other way;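 also: the enzyme is Sfp with the accession as filed and its product quenches rhodamine fluorescence; potency is read from the fitted curve at half-maximal effect; 0% = enzyme reaction without inhibitor and -100% = no enzyme wells; top concentration of the series not given in the record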
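Reaction rates are the 30-min fluorescence difference (ex 525, em 598 nm) in wells containing 15 nM Sfp, 5 uM rhodamine-CoA and 12.5 uM BHQ-2-YbbR at pH 7.6 with 10 mM MgCl2.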
TRPML1 blocker = inhibitors of human TRPML1 channel; Q9GZU1; activity change, negative = inhibition, % (concentration not given with the values); AID 624415; 390,000 compounds, 0.02% hits; TRPML1-inducible cells, Ca2+ dye fluorescence, FDSS; stronger effect = lower value; inhibition of EC80 agonist-evoked calcium signal; in the data active means activity change below about -50%; inconclusive means about -30% to -50%; inactive means above about -30%;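 also: stimulus is agonist 54-4 at its EC80 concentration; % is scaled to controls: 0 for no effect and ±100 for the full control effect; the text of the record puts the active cut at -80%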
Target sequence (Q9GZU1 whole entry, looked up): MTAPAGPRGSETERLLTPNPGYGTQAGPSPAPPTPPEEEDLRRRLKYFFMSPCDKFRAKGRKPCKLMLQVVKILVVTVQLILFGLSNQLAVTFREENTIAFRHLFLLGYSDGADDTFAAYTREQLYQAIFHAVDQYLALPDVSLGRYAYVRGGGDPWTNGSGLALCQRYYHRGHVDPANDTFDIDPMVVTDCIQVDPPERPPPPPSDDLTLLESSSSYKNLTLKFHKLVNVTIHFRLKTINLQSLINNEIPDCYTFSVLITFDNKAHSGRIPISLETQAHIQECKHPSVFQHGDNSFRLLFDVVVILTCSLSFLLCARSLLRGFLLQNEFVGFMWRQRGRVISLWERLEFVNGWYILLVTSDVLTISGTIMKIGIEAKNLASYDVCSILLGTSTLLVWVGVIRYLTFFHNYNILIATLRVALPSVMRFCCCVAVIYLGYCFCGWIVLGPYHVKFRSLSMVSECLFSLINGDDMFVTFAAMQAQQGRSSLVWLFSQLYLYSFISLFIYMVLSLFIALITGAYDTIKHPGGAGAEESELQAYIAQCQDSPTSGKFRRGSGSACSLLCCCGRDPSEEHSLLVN
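TRPML1-DL cells, Tet-induced overnight (~16 h, 37 °C) at 1,500 cells/well, were loaded with Ca8 no-wash dye plus quencher for 45-90 min at room temperature. Compounds were pinned during FDSS kinetic reading; agonist 54-4 at EC80 (4 uM final) then added.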
TRPV1 potentiator = enhances activation of the human vanilloid receptor TRPV1. 320,000 compounds, 0.02% hits. potentiation, % at 8.33 µM. TRPV1-expressing cells, Fluo-8 calcium influx, capsaicin EC20 potentiation; host cell line not named in the record; control for the full effect not named in the record. Q8NER1. AID 540277; active means potentiation above 80%; inconclusive means 30% to 80%; inactive means below 30%; also: 0% is about no effect
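Fluo-8 calcium influx in TRPV1-expressing cells, kinetic read (ex 480/em 520 nm). Compound added and read 3 min for agonist activity, followed by capsaicin at EC20 final and 2 min further read for enhancement.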
PINK1 modulator = modulators of PINK1 expression | PINK1 immunofluorescence, high-content cytometry, 24 h | Potency, µM (titrated, usually from 76.6 µM), for inactives: top-dose activation (PINK1 increase), most hits filed as activators | 410,000 compounds, 0.2% hits | AID 624263; active = well fitted activation curve with a large enough effect; inconclusive = small, poorly fitted or top-dose-only effect; inactive = flat fitted curve, though single readings scatter; cell line not stated here;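 also: potency is read from the fitted curve at half-maximal effect; % of control where 0% means no effect; nearly all actives have a fitted effect of over 65% in size; a mitochondrial uncoupler was the plate control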
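A stable cell line was treated with compounds at 5 concentrations for 24 hours, with CCCP as control. PINK1 levels and mitochondrial localization were measured by immunofluorescence with mitochondrial, cell and nuclear markers after fixation, read by laser-scanning cytometry.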
ClpP mod = qHTS Assay for Activators of ClpP | 340,000 compounds, 1.9% hits | Potency, µM (doses to about 57.5 µM), for the others: top-dose activity change, negative = active | purified B. subtilis ClpP, FRET peptide cleavage, 20 min | ATP-dependent Clp protease proteolytic subunit (Bacillus subtilis (strain 168)), P80244; active = well fitted falling curve with a large enough effect; inconclusive = small, poorly fitted or top-dose-only effect; inactive = no such curve, though single readings can be large or run the other way; also: potency is read from the fitted curve at half-maximal effect; the source files actives as falling curves though it sought activators and does not explain the sign; nearly all actives have a fitted effect of over 65% in size; many hits overshoot -100%
Target sequence (P80244 whole entry, looked up): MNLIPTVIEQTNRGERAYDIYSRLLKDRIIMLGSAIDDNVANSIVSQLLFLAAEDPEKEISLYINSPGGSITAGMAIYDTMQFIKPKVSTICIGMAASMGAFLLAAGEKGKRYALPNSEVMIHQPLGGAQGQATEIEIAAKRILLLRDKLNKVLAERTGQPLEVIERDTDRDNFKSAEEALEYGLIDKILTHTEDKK
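Purified B. subtilis ClpP, 10 microg/mL final in Tris/HCl pH8 with KCl, BSA, glycerol and Tween-20, cleaved an Abz/nitrotyrosine-quenched decapeptide. Fluorescence (ex 320, em 430) was read at 0 and 20 min at room temperature. Delta was normalized to 5.8 microM ADEP and DMSO/no-enzyme controls.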
TRPML1 ag = human mucolipin-1 channel agonism. AID 624414. Q9GZU1. activation, % (concentration not given with the values). 410,000 compounds, 0.12% hits. TRPML1-expressing cells, Ca2+ dye fluorescence, FDSS; host cell line not named in the record; reference of the full effect not given here; in the data active = activation above about 50%; inconclusive = about 30% to 50%; inactive = below about 30%; also: 0% is about no effect; the text of the record puts the active cut at 80%
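Tetracycline-induced TRPML1-DL cells are seeded and incubated overnight before loading with a no-wash Ca2+ dye and quencher. Agonist activity is taken from the 110 s fluorescence read following compound pin-transfer on an FDSS, before EC80 54-4 challenge.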
An asterisk follows results filed as active; ? = inconclusive; . = no result given; [ ] = dose if it differs, or a comment.

SMILES | Menin-MLL FL inh | Sfp inh | TRPML1 blocker | TRPV1 potentiator | PINK1 modulator | ClpP mod | TRPML1 ag
O=C(Nc1ccc(Oc2ccccc2)nc1)C1CCCCN1Cc1ccc(OCCO)cc1 (stereo not drawn) | 8.8 | 11% | -7 | -14 | -0.7% | -6.5% | 1.1
Fc1ccc(-c2csc3ncnc(N4CCN(Cc5ccccc5)CC4)c23)cc1 | . | -10% | 6 | 8 | 0.7% | -3.0% | 0.1
COc1cccc(CC(=O)Nc2ccc3nc(C)sc3c2)c1 | 0.4 | 17% | -7 | -25 | 2.4% | . | 0.5
Cc1cccc(N(CC(=O)NCC2CCCO2)C(=O)CCC(=O)Nc2nccs2)c1 (stereo not drawn) | . | 10% | -3 | 1 | 0.9% | 47% | 0.0
CC(C)CC(=O)NCC1(N(C)C)CCCCC1 | . | . | -10 | . | -0.7% | -0.7% | -0.5
O=C(Nc1ccccc1N1CCCCC1)c1ncoc1-c1ccc(F)cc1 | 4.2 | 4% | 9 | 10 | 2.5% | 28µM* | 0.6
COc1ccc(OC)c(C2Nc3c(C)cc(C)cc3-c3cc(C)nn32)c1 (stereo not drawn) | . | . | -1 | . | 5.1% | 3.5% | -0.3
O=C1NC(=O)c2cc([N+](=O)[O-])cc3cccc1c23 | -4.3 | -6% | 1 | 1 | -0.6% | -9.1% | 0.1
Cc1cccc2c1ncc1c(=O)n(-c3ccccc3)[nH]c12 | -3.7 | 2% | -2 | 1 | -0.2% | 0.1% | 1.9
COc1cccc(-n2c(SCC(=O)NC3CC3)nc3ccccc3c2=O)c1 | . | . | 0 | . | 2.7% | -6.1% | -0.5
CN1/C(=C/C2CC(=O)N(c3cccc4ccccc34)C2=O)C(C)(C)c2ccccc21 (stereo not drawn) | 5.0 | 1% | 5 | 4 | 3.1%[38.3 µM] | 1.3% | -0.2
CC(C)(C)NC(=O)CN(C(=O)CNS(=O)(=O)c1ccccc1)c1ccc2c(c1)OCCO2 | 5.2 | 9% | 3 | 0 | -1.2% | -3.9% | -1.3
CCOC(=O)C1CCN(c2ncnc3c2c(-c2ccccc2)cn3-c2ccc(C)cc2)CC1 | -0.7 | -13% | -19 | -3 | 3.1% | . | 19
CC1CCN(S(=O)(=O)CCNC(=O)c2ccc(F)cc2)CC1 | . | . | -10 | -6 | 2.7% | . | 0.1
CN(C)C(=O)CCC(=O)N1CCCC(C(=O)c2ccc(C(F)(F)F)cc2)C1 (stereo not drawn) | -3.9 | 9% | -1 | -9 | -0.2% | . | -0.4
Cc1cc[n+](-c2[nH]c(=O)sc2/C=N/NC([S-])=Nc2ccccc2)cc1 | ? | -21% | -8 | 5 | -0.3% | -1.6% | 8.5
COC(=O)c1cc2sc(Cl)cc2n1Cc1nc(-c2ccccc2)oc1C | -1.3 | 79µM* | -5 | 1 | -1.0% | -1.1% | 0.0
COc1cccc(N/C=C/C(=O)c2ccc(Br)cc2)c1 | . | . | 20 | . | 1.3% | -0.2% | -0.9
C[C@H]1CC[C@]2(O[C@@H](CCO)C[C@H](O)[C@H]2O)O1 | . | . | 5 | . | 3.5% | 1.6% | -0.4
COc1ccc(-c2cc(C(=O)N3CCOCC3)c3cc(C)ccc3n2)cc1 | 4.0 | -14% | 0 | 29 | 1.2% | 53% | 2.3
COc1ccc(/C=C/c2ccncc2)cc1OC | 11 | 7% | -3 | -9 | -2.8% | ? | -0.7
O=C1Cc2ccccc2C1=C1C=c2ccccc2=C1 | . | . | . | . | 1.1% | -3.1% | 0.2
Fc1ccc(CSc2nnc(Cc3sc(-c4ccccc4)nc3-c3ccccc3)o2)cc1 | -3.3 | -17% | 7 | 22 | 2.4% | -2.3% | 0.1
CC(=O)N(Cc1cccc(Br)c1)c1ccc(N2CCOCC2)c(Cl)c1 | 0.2 | 5% | 17 | 1 | 2.8% | -1.4% | 0.1
CC1(C)Cc2cccc(OCC(=O)Nc3cccnc3)c2O1 | -2.7 | 7% | 91 | -9 | -2.3% | 0.0% | 0.3

5 compounds already listed, ordered by SMILES length, ascending.
SMILES | Menin-MLL FL inh | Sfp inh | TRPML1 blocker | TRPV1 potentiator | PINK1 modulator | ClpP mod | TRPML1 ag
COc1ccc(/C=C/c2ccncc2)cc1OC | 11 | 7% | -3 | -9 | -2.8% | ? | -0.7
CC1CCN(S(=O)(=O)CCNC(=O)c2ccc(F)cc2)CC1 | . | . | -10 | -6 | 2.7% | . | 0.1
COc1cccc(-n2c(SCC(=O)NC3CC3)nc3ccccc3c2=O)c1 | . | . | 0 | . | 2.7% | -6.1% | -0.5
COc1ccc(-c2cc(C(=O)N3CCOCC3)c3cc(C)ccc3n2)cc1 | 4.0 | -14% | 0 | 29 | 1.2% | 53% | 2.3
Cc1cc[n+](-c2[nH]c(=O)sc2/C=N/NC([S-])=Nc2ccccc2)cc1 | ? | -21% | -8 | 5 | -0.3% | -1.6% | 8.5

(list continues)
SMILES | Menin-MLL FL inh | Sfp inh | TRPML1 blocker | TRPV1 potentiator | PINK1 modulator | ClpP mod | TRPML1 ag
COc1ccc(CN(C)C(=O)Cc2c[nH]c3ccccc23)c(OC)c1OC | 5.3 | 0% | 16 | -14 | -0.3% | 1.2% | 0.7
CC(=O)Nc1ccc(S(=O)(=O)N2CCC(C(=O)N[C@@H](C)C(=O)NC3CCCC3)CC2)cc1 | -2.1 | 8% | -15 | 1 | -0.1% | -0.5% | 1.2
O=C(NCc1cccnc1)C1CCN(S(=O)(=O)c2cccs2)CC1 | 2.0 | 14% | -12 | -8 | 1.1%[38.3 µM] | 0.1% | 0.1
C/C(=N/NC(=O)c1ccco1)c1cccc(NC(=O)c2ccc(C)s2)c1 | 1.5 | -9% | 6 | 2 | 4.7% | -0.4% | 0.6
CC1CCCCN1c1nnc(N)s1 (stereo not drawn) | 1.5 | 9% | 28 | 10 | -5.1%[38.3 µM] | -2.5% | -0.4
COc1ccc(CNC(=O)C(=O)N2CCC3(CC2)OCCN3S(=O)(=O)c2ccc(C)cc2)cc1 | . | . | -1 | -6 | 1.1% | ? | -0.4
CC(C)c1ccccc1NC(=O)COC(=O)Cc1c[nH]c2ccccc12 | 4.4 | 19% | 6 | 13 | 1.1% | -0.4% | 2.6
COc1cc(C(=O)Nc2cc(C(F)(F)F)ccc2N2CCOCC2)ccc1OCC(=O)N1CCOCC1 | . | . | 12 | -11 | 0.6% | -1.5% | -0.3
Cn1c(SCC(=O)N2CC(=O)Nc3ccccc32)nnc1C(F)(F)F | . | . | -6 | -17 | 0.3% | 1.0% | -0.6
COc1ccc(NS(=O)(=O)c2cccc(C(=O)N(C)Cc3ccc(SC)cc3)c2)cc1 | . | . | -13 | -6 | 1.6% | 0.7% | 1.1
CN1C(=O)CC(N2CCC(c3nc4ccccc4[nH]3)CC2)C1=O (stereo not drawn) | 2.9 | 5% | -11 | . | -2.7% | -2.2% | 1.1
COc1ccc(/C=C/C(=O)OCC(=O)N(C)CC(=O)Nc2ccc(C)cc2)c(OC)c1 | . | . | -8 | . | 0.9% | -7.0% | 2.8
C=CCn1c(COc2cccc(C)c2)nnc1SCC(=O)NC(=O)NCc1ccco1 | -0.6 | 25µM* | 17 | 2 | 1.9%[38.3 µM] | -1.9% | 0.1
CNc1cc(CSc2ccc(Cl)cc2)nc(C)n1 | -0.1 | 8% | -4 | 3 | 4.8% | . | 1.1
Cc1cccc(C)c1NC(=O)c1c(C)nn(-c2ccccc2)c1Cl | -2.5 | 3% | 3 | -25 | 4.0%[38.3 µM] | 1.0% | -0.4
O=C(COc1ccc(Cl)cc1Br)NNC(=O)C(=O)N1CCCCC1 | 2.7 | 27% | 0 | 13 | 0.8% | ? | -0.5
Cc1ccnc(NC(c2ccccc2O)c2oc(CO)cc(=O)c2O)c1 (stereo not drawn) | -0.4 | 10µM* | -10 | 1 | 2.7% | -10% | -0.2
COc1ccc(-c2ccc(C(=O)NCc3ccc(F)c(F)c3)c3occc23)c(C)c1 | . | . | . | . | 3.7% | 5.5% | 0.9
Fc1ccc(-n2ncc3c(N4CCC(Cc5ccccc5)CC4)ncnc32)cc1 | . | . | 40 | . | 0.4% | ? | -1.3
CC(N=C1NS(=O)(=O)c2ccccc21)C(=O)NCc1ccc(F)cc1 (stereo not drawn) | . | . | 18 | . | -0.8% | -2.0% | -0.1
CCOc1ccccc1CNC(=O)c1cccc(NC(=O)c2nsc3ccccc23)c1 | . | . | 16 | . | -1.4% | -29% | 1.5
CCOC(=O)c1[nH]c(C)c(CN(CCc2ccc(OC)c(OC)c2)C(=O)CCCC(=O)O)c1C | -6.2 | 23% | 3 | -44 | -2.3% | 0.2% | 0.4
O=C(NNc1cc(C(F)(F)F)nc2ccccc12)Nc1cccc(Cl)c1 | 3.3 | 16% | -4 | 6 | ? | . | 2.1
O=C(/C=C/c1cccs1)N1CCN(c2ccc(O)cc2)CC1 | 0.1 | 45µM* | -5 | -18 | -0.6% | . | 0.3
O=C(NCCc1ccccc1)C(=O)NCC1OCCN1S(=O)(=O)c1ccc(Br)cc1 (stereo not drawn) | . | 7% | 17 | 15 | 2.1% | -1.0% | 4.5

Continued.
SMILES | Menin-MLL FL inh | Sfp inh | TRPML1 blocker | TRPV1 potentiator | PINK1 modulator | ClpP mod | TRPML1 ag
CCOCC(=O)Nc1cc([N+](=O)[O-])ccc1C | 1.5 | 14% | -6 | -8 | 2.1% | -5.6% | -0.7
COc1ccc(CNC(=O)CCNC(=O)C2CCN(S(=O)(=O)c3ccc(OC)cc3)CC2)cc1 | . | . | 9 | . | 2.3% | -1.9% | -0.4
Cc1ccccc1NCc1nc2ccccc2n1CCOc1ccccc1 | . | . | 19 | . | 0.3% | -2.9% | 2.6
CCCCC1=CC2=CC(=O)C(C)(OC(=O)CC)C(=O)C2=CN1c1cccc(C#N)c1 (stereo not drawn) | 4.2[11.7 µM] | 11% | 1 | . | 6.3% | -11% | 1.1
O=C1CC(=O)Nc2cc(S(=O)(=O)Nc3cccc(Br)c3)ccc2N1 | . | . | -9 | . | -0.7% | -2.7% | 0.8
CC1CCOC2(O1)C(=O)N(CN1CCN(c3ccccc3F)CC1)c1ccccc12 (stereo not drawn) | 2.1 | 8% | 7 | . | 0.2% | -3.0% | -0.1

Screens deposited in PubChem by National Center for Advancing Translational Sciences (NCATS).
